Compound activity: PubChem, several laboratories
Ecoli rRNA inh: inhibitors of bacterial rRNA selective over humanized ribosomes; AID 720706; GFP signal change (wild-type ribosome), % (test concentration not listed); E. coli WT GFP vs humanized-ribosome RFP mutants, fluorescence, 24 h; active compounds read low; DMSO median 0, no signal -100; 350,000 tested, 1.6% active;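 active means significant combined selectivity score with lowered wild-type GFP, culture density cut under 30%, mutant RFP and density less affected; inactive means any of these conditions unmet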; further: one replicate is shown; some compounds called inactive have numbers as strong as hits
Vif A3G: HIV-1 Vif–A3G interaction blockers – biochemical, TR-FRET, GST-Vif 1-94, biotin-A3G peptide, dose response retest, primary screen (AID 1117319) | 260,000 tested, 0.57% active | TR-FRET GST-Vif / biotin-A3G peptide binding; higher % means a stronger effect; test concentration not given here; strong numbers were not always called active | inhibition, %, or IC50 in µM where a hit was titrated;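 active means above the screen mean plus three standard deviations and confirmed in dose response; inconclusive means results disagree or hit not tested in dose response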;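 further: Vif residues 1-94 fused to GST binding biotinylated APOBEC3G peptide 110-148; 0% = full assay without inhibitor and 100% = GST in place of GST-Vif; retest series ran down from 100 µM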
RanGTP-Imp inh: inhibitors of RanGTP-importin-beta interaction, primary screen, biochemical, FRET, CFP-Ran, YFP-importin-beta, homogeneous | AID 2216 | 300,000 tested, 1.1% active | cell-free CFP-Ran/YFP-importin-beta FRET ratio | inhibition, % (concentration not given with the values);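 active means most replicates above 15%; inconclusive means exactly half above 15%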;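 further: 0% = DMSO wells and 100% = Ran loaded with GDP instead of GTP; wells of about 40 µL received 100 nL stock; the first replicate is given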
Beta cell apopt: beta cell apoptosis inhibition. INS-1E cytokine-induced death, ATP luminescence, 48 h; percent of positive-control rescue, neutral wells zero. protection from apoptosis, % (concentration not given with the values). 300,000 tested, 0.8% active. AID 435005;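 active means all replicates at 75% or more, or half of them and the mean; inconclusive means half reach 75% but not the mean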;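 further: 0% = cytokine-treated negative control wells and 100% = positive control rescue; higher means more ATP so stronger rescue from cytokine killing; wells of about 40 µL received 100 nL stock; the first replicate is given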
T cruzi inh: blocks replication of Trypanosoma cruzi; inhibition, % (no concentration beside the values); 300,000 tested, 1.4% active; T. cruzi beta-gal in NIH3T3, luminescence, 90 h; AID 1885;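 active means mean inhibition across valid replicates above about 55%, limit read from the data; inconclusive means mean below that limit but half or more replicates reach it; inactive means mean below it, under half of replicates reach it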;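 further: signal also drops with host cell toxicity which is not excluded here; 0% = plate median of DMSO wells and 100% = zero luminescence signal; higher percent means less beta-gal luminescence so fewer parasites; stock transfer was 50 nL into about 50 µL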
Calb FLC: affects C. albicans growth with fluconazole; C. albicans CaCi-2 (fluconazole-resistant clinical isolate) + fluconazole, Alamar Blue growth, 48 h; growth inhibition, % (test concentration not listed); 300,000 tested, 0.57% active; AID 1979;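 active means most replicates above 75%; inconclusive means exactly half above 75%; inactive means most below 75%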;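 further: all wells also contain fluconazole at 8 µg/ml as a sub-toxic cotreatment; 0% = median of DMSO wells and 100% = median of geldanamycin control wells; wells of about 8 µL received 7.5 nL stock; the first replicate is given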
A1 inh: inhibitors of the anti-apoptotic protein A1, read as caspase activation | caspase activation, % (concentration not given with the values) | AID 2462 | MEF A1-2A-BIM cells, Caspase-Glo 3/7 luminescence, 3 h; percent of clofoctol response, vehicle zero | 330,000 tested, 0.066% active;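 active means over half of replicate activation scores above 10%, or exactly half above 10 with the replicate mean above 10; inconclusive means replicate mean below 10 yet half the replicates above 10; inactive means over half of replicates below 10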;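 further: wells of about 30 µL received 50 nL stock; many hits fall short of the cut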
MLL AF4-AF9 inh: inhibitors of human MLL-AF4/AF9 interaction; P42568; AlphaScreen, biotin-AF4 peptide binding to FLAG-AF9; inhibition, % at 10 µM; 350,000 tested, 0.47% active; AID 651704;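 active means every replicate reaching a set inhibition limit, whatever the replicate mean, cut at about 25% in these data; inconclusive means mean inhibition reaches that limit but some replicates miss it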;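 further: 0% = plate neutral control median and 100% = total signal loss; the record names both 10 and 1 µM as test concentration; the first replicate is given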
Target sequence (P42568 whole entry, looked up): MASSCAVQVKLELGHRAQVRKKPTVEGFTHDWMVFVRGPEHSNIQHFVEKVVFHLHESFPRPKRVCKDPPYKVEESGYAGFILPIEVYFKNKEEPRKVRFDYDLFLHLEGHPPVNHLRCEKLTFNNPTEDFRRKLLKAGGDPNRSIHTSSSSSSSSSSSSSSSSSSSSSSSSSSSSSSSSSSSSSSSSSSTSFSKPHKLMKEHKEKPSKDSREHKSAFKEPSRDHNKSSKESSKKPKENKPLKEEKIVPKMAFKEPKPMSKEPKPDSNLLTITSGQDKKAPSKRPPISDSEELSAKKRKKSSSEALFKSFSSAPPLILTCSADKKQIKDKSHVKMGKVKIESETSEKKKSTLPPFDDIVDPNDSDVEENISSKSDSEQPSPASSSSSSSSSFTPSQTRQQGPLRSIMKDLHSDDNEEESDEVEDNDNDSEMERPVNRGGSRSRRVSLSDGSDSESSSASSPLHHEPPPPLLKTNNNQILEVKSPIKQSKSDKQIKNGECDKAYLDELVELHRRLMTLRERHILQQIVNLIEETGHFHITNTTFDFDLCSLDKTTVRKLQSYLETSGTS
Ecoli rRNA inh OD600: further read-out of Ecoli rRNA inh, marked with its call; OD600 change, %; measured here: OD600 growth;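 optical density of the mix in the first replicate; 0 = DMSO median and -100 = no signal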
Ecoli rRNA inh RFP: recorded beside Ecoli rRNA inh, whose call it bears; RFP signal change, %; measured here: RFP humanized mutant strains;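 first replicate; 0 = DMSO median and -100 = no signal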
Active calls of the source: *; ? = inconclusive; . = not tested or not shown. Not all compounds are listed; count on the stated rates, not on these rows.

SMILES	Ecoli rRNA inh	Ecoli rRNA inh OD600	Ecoli rRNA inh RFP	Vif A3G	RanGTP-Imp inh	Beta cell apopt	T cruzi inh	Calb FLC	A1 inh	MLL AF4-AF9 inh
CC1(C)C[C@H]2C3=CCC4[C@@]5(C)CC[C@H](O[C@@H]6O[C@H](C(=O)O)[C@@H](O)[C@H](O)[C@H]6O)[C@@](C)(CO)C5CC[C@@]4(C)[C@]3(C)C[C@H](O)[C@@]2(CO)[C@@H](O)[C@@H]1O (some centres undefined)	6	6	0.1	.	.	-4	.	.	1.9	-1.7
CCOC(=O)C1(Cc2ccccc2)CCN(Cc2ccc(C)s2)CC1	-25	-22	0.9	-3%	0.8	-11	11	1	0.4	1.8
Cc1ccnc(NC(=O)CCC(=O)N(CC(=O)NC(C)(C)C)c2ccc(F)c(Cl)c2)c1	12	8	1.6	.	1.9	-5	-1	3	0.0	-1.9
Clc1ccc2nc(-c3ccccn3)c(Nc3ccc4c(c3)OCO4)n2c1	3	5	2.7	22%	-3.3	1	35	-1	0.0	-4.4
O=C(O)c1ccc(N/N=C/c2cccc3cccnc23)cc1	-4	-2	0.9	-2%	0.3	-6	-15	1	-4.4	1.3
CC(=O)Nc1ccc(NC(=O)C(C)OC(=O)/C=C/c2cnc3ccccc3n2)cc1 (centres undefined)	5	1	-2.2	-8%	?	-20	-8	-1	0.1	-3.7
COCCCNC(=O)C(=O)C1C(=O)Nc2ccccc21 (centres undefined)	-2	-4	-0.7	-3%	4.5	5	-7	6	0.4	-0.1
C/C(NC(=O)c1cccs1)=C1\C(=O)C[C@@H]2[C@H]1C2(C)C	.	.	.	3%	5.3	-2	9	5	0.1	18
COc1ccc(OCC(=O)NC(CC(=O)O)c2ccc(OC)c(OC)c2)cc1 (centres undefined)	11	3	4.0	-2%	-2.4	-3	-8	-21	-0.5	-2.3
CCn1c(C)nc2cc(C(=O)NNC(=S)NC(=O)c3ccc(OC)cc3)ccc21	-40	-63	-2.4	?	-1.5	-2	-7	13	-0.5	-2.3
Cc1cccc(N2C(=O)CC(Cn3nc(C)cc3C)C2=O)c1 (centres undefined)	14	10	3.6	25%	-2.0	-16	7	-2	-0.8	-2.1
Cc1ccc(NC(=O)CNc2ccc(Cl)cc2F)cc1	.	.	.	8%	-0.8	-6	16	6	-0.8	.
Cc1nc2c3ccccc3n(CC#N)c(=O)n2n1	14	9	0.6	-5%	-2.2	-1	-5	-4	-0.9	-1.6
CCc1ccc(N(C(=O)C(F)(F)F)C(C(=O)NC2CCCCC2)c2ccncc2)cc1 (centres undefined)	.	.	.	8%	-1.6	3	24	-6	0.6	.
CCN(C1CCCCC1)S(=O)(=O)CCNC(=O)c1ccccc1	-1	0	0.4	.	1.8	-4	-9	5	-0.4	-1.7
NCCc1nc(-c2ccccc2)cs1	1	-13	-3.3	1%	-3.7	-16	12	-11	0.3	-4.0
CCn1nnnc1SCC(=O)c1ccc(C)cc1	.	.	.	29%	?	2	-4	-1	-0.1	.
Cc1cc(=O)[nH]c(N/N=C/c2ccc(Br)s2)n1	4	13	15	29%	-3.3	3	4	-5	-0.9	1.5
COc1ccc(C(=O)Cn2cnc3ccccc3c2=O)cc1OC	9	16	0.1	.	-1.4	2	6	1	1.5	-2.6
CCCCCCNS(=O)(=O)c1nc2nc(C)cc(C)n2n1	2	5	2.5	0%	-3.3	0	6	-7	0.1	0.3
COc1ccc(Br)cc1C(=O)Nc1ccc(N2CCN(S(C)(=O)=O)CC2)cc1	.	.	.	10%	3.8	-1	26	17	-0.1	.
CCn1c(SCC(=O)Nc2ccc(OC)cc2)nnc1-c1ccco1	.	.	.	0%	4.4	0	1	-2	0.2	.
COC(=O)CSc1nc2c(cnn2-c2ccc(Cl)cc2)c(=O)[nH]1	11	6	0.2	1%	0.8	-1	6	13	-0.2	-2.0
NC(=O)N/N=C/c1ccc(-c2cccc(C(F)(F)F)c2)o1	2	6	2.1	-16%	6.6	-9	8	18	-0.4	2.8
CCCCN1CCc2c(c3ccccc3n2Cc2ccccc2)C1	-1	-7	1.0	0%	-3.0	26	44	-11	0.8	17
Cc1sc(NC(=O)c2cccs2)c(C(N)=O)c1C	.	.	.	-2%	2.7	-2	-1	13	-2.3	.
O=C1CCCCCN1Cc1ccccc1	.	.	.	-7%	3.1	-9	-9	-1	-1.0	0.2
CCC(CO)Oc1cc(NCc2ccc(C)cc2)c2ncn(C(C)C)c2c1 (centres undefined)	4	2	-6.4	.	.	-5	.	.	-0.3	5.1
CCN(CC)CCN(C(=O)c1ccc(C(=O)c2ccccc2)cc1)c1nc2c(OC)cccc2s1	-34	-52	-5.9	-2%	0.6	-3	5	24	-1.1	27*
CCOc1ccccc1NC(=O)CSc1nnnn1-c1ccc(C(=O)OC)cc1	.	.	.	8%	-0.2	-5	15	-1	0.5	.
CCN(CC)C(=O)c1ccc(-c2nnc(OC)c3ccccc23)cc1	.	.	.	-14%	-0.8	-2	0	3	0.1	1.4
COc1ccc(-c2csc(NC(=O)c3cccc(N4C(=O)CCC4=O)c3)n2)cc1C	3	9	12	.	2.9	0	9	-3	-0.3	-2.8
CN(C(=O)COC(=O)c1ccc(Cl)nc1)c1c(N)n(Cc2ccccc2)c(=O)[nH]c1=O	9	12	-2.2	-13%	.	6	.	.	-0.5	-1.3
COc1c(C)cc(C(=O)C2CCCN(C(=O)Cn3nc(C)nc3C)C2)cc1C (centres undefined)	4	4	-0.7	.	3.9	-3	-2	-1	0.1	0.1
CCC(=NCCc1ccc(OC)c(OC)c1)C1=C(O)CC(C)(C)CC1=O	3	6	0.0	-3%	-1.3	1	-2	5	-0.7	0.2
Cc1nnnn1/C(=C\c1ccccc1)C(=O)OCC(=O)NC1CCCCC1	-3	-3	4.3	.	-1.2	-30	-36	-3	0.2	0.3
CCOC(=O)C1CSC(CC(=O)Nc2ccc(OCC)cc2)C(=O)N1 (centres undefined)	.	.	.	-3%	2.6	1	-9	-5	-0.7	.
O=C1C=C(NCc2ccc3c(c2)OCO3)CC(c2ccccc2)C1 (centres undefined)	-24	-20	-1.6	-5%	-1.8	8	-4	17	-0.3	-1.1
CN1CCN(C(=O)CCNC(=O)Cn2ccc3ccccc3c2=O)CC1	.	.	.	4%	?	-7	-6	-1	2.3	.
O=C1NC(=S)N/C1=C\c1ccccc1OCc1ccc(C(=O)O)cc1	9	6	-6.0	-7%	0.3	-3	-4	0	0.5	.
Cc1ccc2oc(-c3ccc(C)c(NC(=S)NC(=O)c4cccs4)c3)nc2c1	4	10	1.5	.	3.6	6	-27	4	0.2	-1.5
CCN(CC(=O)NCc1ccc(Cl)cc1)CC(=O)Nc1ccc(C(N)=O)cc1	1	7	1.6	-2%	2.1	0	-3	-6	-0.5	-1.0
COc1ccc(CCc2nnc(CCC(=O)NCc3ccc4ncccc4c3)o2)cc1	3	-3	-1.3	-3%	?	2	16	-14	-0.3	1.0
COc1ccccc1CNC(=O)c1cccc(-c2ccc(C)c3ccccc23)n1	8	0	-5.3	.	7.3	23	-6	8	0.3	.
O=C(c1cc(-c2ccco2)on1)N1CCN(c2ccccc2)CC1	0	-2	-9.7	31µM*	5.1	-5	-11	0	0.6	-2.2
O=C(NC(=S)Nc1cc([N+](=O)[O-])ccc1Cl)c1ccccc1	.	.	.	0%	4.2	9	-34	5	?	.
Cc1oc(C(C)(C)C)c(CN2CCCC2)c1C(=O)O	.	.	.	-1%	-0.7	3	-11	5	-0.5	.
COc1ccc(CNC(=O)C2CCN(C(=O)c3ccco3)CC2)cc1	-1	2	0.2	-1%	-5.9	-1	-3	-2	-0.4	-16
CN1CC(=O)N2[C@H]3c4ccccc4OC[C@@H]3[C@H](c3ccccc3)[C@]2(C)C1=O	2	5	-0.5	.	.	3	.	.	-0.9	-3.9
O=c1[nH]c2ccc(S(=O)(=O)N3CCCCC3)cc2s1	-3	-8	-5.0	.	-5.6	10	10	-2	-0.4	-4.6
NS(=O)(=O)c1ccc(CCNC(=O)C(=O)NCC2OCCN2S(=O)(=O)c2ccc(F)cc2)cc1 (centres undefined)	3	5	-2.2	.	1.8	-7	-11	3	0.2	-0.3
C/C=C(\C)C(=O)NNC(=O)c1sc(-c2ccccc2)nc1C	2	2	-0.5	.	1.3	-4	-14	-2	0.1	-1.2
COc1ccc(C2Nc3ccccc3NC3=C2C(=O)CC(C)(C)C3)cc1O (centres undefined)	24	0	71	.	-2.2	-2	7	-3	0.3	-11
CCOc1cc(/C=N\NC(=O)c2ccc(NC(=O)CC)cc2)ccc1OC(=O)c1ccccc1	.	.	.	-4%	-3.2	.	11	-4	0.2	.
O=S(=O)([O-])CCC[n+]1c(/C=C\Nc2ccccc2)oc2ccc(-c3ccccc3)cc21	.	.	.	9%	-1.9	.	-5	6	.	.
CCCCCOC(=O)CSc1nc2c(c(=O)[nH]c(=O)n2C)n1Cc1ccc(Cl)cc1	15	11	0.1	-2%	-1.3	-6	9	10	-0.2	2.7
CN(C)c1ccc(CNC(=O)C2CCN(S(=O)(=O)c3ccc4c(c3)CCCC(=O)N4)CC2)cc1	-7	5	0.4	.	-0.2	6	-1	-6	2.2	2.3
CC(Sc1nnc(-c2ccco2)n1N)C(=O)NCC1CCCO1 (centres undefined)	17	13	3.2	.	.	-2	.	.	-0.3	-0.4
O=C(c1ccc(OC2CCN(Cc3ccc(C(F)(F)F)cc3)CC2)cc1)N1CCCCC1	-2	-50	5.6	.	6.4	10	10	-13	-0.4	0.6
COc1ccc(NC(=O)C2CCCN(S(=O)(=O)c3ccc(Cl)cc3)C2)cc1OC (centres undefined)	2	4	-0.7	.	-0.6	0	-7	1	-0.9	?

(further entries)
SMILES	Ecoli rRNA inh	Ecoli rRNA inh OD600	Ecoli rRNA inh RFP	Vif A3G	RanGTP-Imp inh	Beta cell apopt	T cruzi inh	Calb FLC	A1 inh	MLL AF4-AF9 inh
Cc1ccc(S(=O)(=O)N2CCC(C(=O)Nc3nnc(COc4ccccc4)s3)CC2)cc1	9	1	-8.6	18%	2.8	.	17	26	.	-0.6
O=C(CSc1nc2c(c(C(F)(F)F)n1)CCc1ccccc1-2)NCc1ccc(F)cc1	.	.	.	.	-0.9	-6	42	26	0.3	.
CC(C)(C)c1ccc(S(=O)(=O)NCc2ccc(C(=O)N3CCCC3)cc2)cc1	21	11	-4.5	6%	-0.6	3	-1	-10	0.6	5.3
Cc1c(OC(C)C(=O)NCCN2CCOCC2)ccc2c(-c3ccccc3)cc(=O)oc12 (centres undefined)	-2	-12	-2.2	-1%	7.4	-5	-1	-1	-0.6	-0.1
CCOC(=O)CSc1nnc(-c2c[nH]c3ccccc23)n1CC	7	7	-7.4	-3%	?	-5	-1	-9	0.8	-21
